TRPML1 agonist: human mucolipin-1 channel agonism; Q9GZU1; TRPML1-expressing cells, Ca2+ dye fluorescence, FDSS; host cell line not named in the record; reference of the full effect not given here; activation, % (concentration not given with the values); 410,000 compounds, 0.12% hits; in the data active = activation above about 50%; inconclusive = about 30% to 50%; inactive = below about 30%; also: 0% is about no effect; the text of the record puts the active cut at 80%
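TRPML1-DL cells, Tet-induced overnight (~16 h, 37 degrees C), loaded 45-90 min at room temperature with Ca8 no-wash calcium dye plus quencher. FDSS fluorescence: 10 s baseline, compound pin-transfer, 110 s agonist read, then EC80 54-4 (4uM final) and 110 s antagonist read.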
TRPML1 blocker: inhibitors of human TRPML1 channel | Q9GZU1 | TRPML1-inducible cells, Ca2+ dye fluorescence, FDSS; hits give low values; inhibition of EC80 agonist-evoked calcium signal | activity change, negative = inhibition, % (concentration not given with the values) | 390,000 compounds, 0.02% hits | AID 624415; in the data active means activity change below about -50%; inconclusive means about -30% to -50%; inactive means above about -30%;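 also: stimulus is agonist 54-4 at its EC80 concentration; % is scaled to controls: 0 for no effect and ±100 for the full control effect; the text of the record puts the active cut at -80%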
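Calcium fluorescence in TRPML1-DL cells induced overnight with Tet: a 110 s read after compound pin addition, then a 110 s antagonist read after challenge with 54-4 at 4 uM final (EC80).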
D2 ag: human D2 receptor agonism in beta-arrestin assay; activation, % (test concentration not listed); DiscoveRx PathHunter D2 beta-arrestin, luminescence, 90 min; 100% = 57 uM dopamine signal; 360,000 compounds, 0.084% hits; AID 624465; P14416; in the data active = activation above about 40%; inconclusive = about 15% to 40%; inactive = below about 15%; also: compound concentration not given in the record; the text of the record calls up to 30% inactive
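DiscoveRx PathHunter D2 beta-arrestin cells (2,100/well) attached overnight, then compound-stimulated 90 min at 37 C in HBSS/10 mM HEPES/0.1% Tween-20 buffer; beta-galactosidase complementation read by luminescence after 1 h at ambient temperature. Dopamine 57 uM final (EC100) as control.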
Six1-Eya2 inh: Six1/Eya2 interaction inhibition; activity change, % (no concentration beside the values); AID 651725; Q15475+O00167; 360,000 compounds, 0.56% hits; AlphaScreen GST-Six1/His-Eya2 binding, biochemical; hits give low values; control for the full effect not named in the record; in the data active = activity change below about -65%; inconclusive = about -30% to -65%; inactive = above about -30%; also: % is scaled to controls: 0 for no effect and ±100 for the full control effect
Target sequence (O00167 whole entry, looked up): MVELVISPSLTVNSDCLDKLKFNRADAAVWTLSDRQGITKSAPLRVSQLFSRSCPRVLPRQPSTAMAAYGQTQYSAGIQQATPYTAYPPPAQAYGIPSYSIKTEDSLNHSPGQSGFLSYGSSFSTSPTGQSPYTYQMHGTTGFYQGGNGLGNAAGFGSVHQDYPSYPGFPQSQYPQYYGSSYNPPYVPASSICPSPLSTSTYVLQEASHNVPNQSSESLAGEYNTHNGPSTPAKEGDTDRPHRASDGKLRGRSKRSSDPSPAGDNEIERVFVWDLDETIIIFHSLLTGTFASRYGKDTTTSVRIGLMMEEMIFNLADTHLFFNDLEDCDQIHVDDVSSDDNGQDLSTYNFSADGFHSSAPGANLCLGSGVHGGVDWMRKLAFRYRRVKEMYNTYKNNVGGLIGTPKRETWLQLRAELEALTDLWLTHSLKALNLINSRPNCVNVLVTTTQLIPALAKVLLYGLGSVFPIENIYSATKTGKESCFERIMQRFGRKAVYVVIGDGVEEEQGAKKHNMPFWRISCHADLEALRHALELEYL
Target sequence (Q15475 whole entry, looked up): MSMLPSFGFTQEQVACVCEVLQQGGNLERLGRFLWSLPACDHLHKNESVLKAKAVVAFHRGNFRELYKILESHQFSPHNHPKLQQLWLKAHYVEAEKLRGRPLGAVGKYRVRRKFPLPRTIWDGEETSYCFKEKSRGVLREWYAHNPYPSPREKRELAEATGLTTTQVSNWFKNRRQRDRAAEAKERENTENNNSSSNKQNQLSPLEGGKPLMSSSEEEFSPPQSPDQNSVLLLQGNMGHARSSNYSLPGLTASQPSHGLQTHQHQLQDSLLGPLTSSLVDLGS
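Six1/Eya2 binding was read as AlphaScreen signal after compounds were pinned into GST-Six1 plus His-tagged Eya2 (5X stock 250/500 nM) in pH 8.0 Tris/NaCl/TCEP buffer, beads added, then incubated 1 h, 37 C, dark.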
CtBP-E1A blk: inhibitors of CtBP/E1A interaction. 340,000 compounds, 0.49% hits. activity change, % (test concentration not listed). AID 651724. AlphaScreen GST-E1A/His-CtBP binding, 1536-well; hits give low values; control for the full effect not named in the record; in the data active means activity change below about -65%; inconclusive means about -30% to -65%; inactive means above about -30%; also: % is scaled to controls: 0 for no effect and ±100 for the full control effect
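Homogeneous bead-based format: GST-tagged E1A captured on glutathione donor beads, His-tagged CtBP on nickel acceptor beads; compounds precede bead addition by 2 h at 37 °C.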
PINK1 expr mod: PINK1 expression modulation; PINK1 immunofluorescence, high-content cytometry, 24 h; Potency, µM (series often up to 76.6 µM), inactives show top-dose activation (PINK1 increase), hits mostly activators; 410,000 compounds, 0.2% hits; AID 624263; active = well fitted activation curve with a large enough effect; inconclusive = small, poorly fitted or top-dose-only effect; inactive = flat fitted curve, though single readings scatter; cell line not stated here;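 also: potency is read from the fitted curve at half-maximal effect; % of control where 0% means no effect; nearly all actives have a fitted effect of over 65% in size; a mitochondrial uncoupler was the plate control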
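A stable cell line was treated with compounds at 5 concentrations for 24 hours, with CCCP as control. PINK1 levels and mitochondrial localization were measured by immunofluorescence with mitochondrial, cell and nuclear markers after fixation, read by laser-scanning cytometry.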
* marks the source's active call; other numbers are inactive results; ? = inconclusive; . = not tested or not shown; [ ] = dose if it differs, or a comment.

Order of results: CtBP-E1A blk	TRPML1 blocker	D2 ag	Six1-Eya2 inh	TRPML1 agonist	PINK1 expr mod
1	CCOc1cc(CNC(C)C(O)c2ccccc2)cc(Cl)c1OCC (stereo not drawn)
    10	9	-10	-1	-0.3	14%
2	C=C1CC[C@@]2(O)[C@H]3Cc4ccc(O)c5c4[C@@]2(CCN3CC2CC2)[C@H]1O5
    -8	-17	-2.8	15	0.2	-0.4%
3	O=C1c2ccccc2C2(c3ccc(Cl)cc3)NCCN12 (stereo not drawn)
    -1	-8	-2.5	4	-0.6	-0.2%
4	COc1cc(CN2CC=C(c3ccc(F)cc3)CC2)cc(OC)c1
    8	25	-1.9	-5	1.2	3.1%
5	COc1ccccc1-n1c(O)c(/C=N/N2CCCCC2)c(=O)n(-c2ccccc2OC)c1=S
    -2	-3	-0.3	-1	1.7	1.3%
6	O=C(Nc1cccc(OC(=O)N2CCOCC2)c1)N1CCOCC1
    6	0	-2.8	3	-0.2	0.4%
7	CN1CCN(c2ccc(C(F)(F)F)cc2N)CC1
    -17	6	-5.1	5	0.1	0.4%
8	C/C=C1/CN2[C@@H]3C4CO[C@@H]3c3c([nH]c5cc(OC)ccc35)[C@@H]2CC14 (stereo partly drawn)
    14	.	6.9	4	.	-0.6%
9	COc1cc2c3cc1Oc1cc(ccc1O)C[C@@H]1c4c(cc(OC)c(O)c4Oc4ccc(cc4)C[C@H]3N(C)CC2)CCN1C
    8	-15	-3.5	1	-0.3	1.8%
10	Nc1ccc(C2(c3ccc(N)cc3)c3ccccc3-c3ccccc32)cc1
    -11	34	-3.7	-14	0.2	0.5%
11	O=C1NC(=O)N(CCC2=CCCCC2)C(=O)/C1=C/c1ccc(O)cc1
    .	55	-2.7	1	-0.4	0.6%
12	CC(C)n1c(O)c(C2c3cc(Cl)ccc3Oc3[nH]c(=O)n(C(C)C)c(=O)c32)c(=O)[nH]c1=O (stereo not drawn)
    3	-29	-0.7	10	0.6	-0.3%
13	COc1ccc2c3c1OC1[C@H](O)CCC4[C@@H](C2)N(C)CC[C@]314 (stereo partly drawn)
    2	-2	4.4	-1	-0.1	-0.6%
14	Cc1ccc(N)c(C)c1
    4	0	3.0	6	-0.7	0.5%
15	CC1(C)C[C@H]2C=C(C=O)[C@]3(C=O)C[C@]3(C)[C@H]2C1
    3	.	2.1	-7	.	-0.6%
16	COC(=O)C1=C(c2ccc(OC)c(OC)c2)C[C@@H]2CC[C@H]1N2C(=O)N1CCOCC1
    4	1	-1.8	4	0.0	-0.9%
17	CN(C)P(=O)(NC(=O)c1cccn1C)N(C)C
    -6	-5	-6.2	0	-1.7	-1.1%
18	COc1ccc(CCNCc2ccc(OC)c(OC)c2OC)cc1
    26	-14	-3.2	2	0.2	-2.0%[38.3 µM]
19	C[C@@H]1CN([C@H](C)CO)C(=O)CCCn2cc(nn2)CO[C@H]1CN(C)C(=O)Oc1cccc2ccccc12
    4	-5	-5.3	-2	-0.4	3.2%
20	Cc1cc(NC(=O)COC(=O)c2c(C)nn(Cc3ccccc3Cl)c2C)no1
    0	16	-4.7	18	3.2	7.7%
21	C/C(=N\N1CCCCCC1)c1c(O)n(-c2ccc(C)cc2)c(=O)[nH]c1=O
    -1	-7	2.7	2	1.0	2.7%
22	O=S1(=O)N(Cc2ccccc2)CCCN1Cc1cccc(Cl)c1
    .	53	.	.	3.7	1.8%
23	CCOC(=O)C1(CCc2ccccc2)CCN(Cc2csc(C(C)=O)c2)CC1
    .	-8	0.1	-26	-0.7	1.8%
24	CCC(=NCCc1c[nH]c2ccccc12)c1c(O)n(-c2ccc(C)cc2)c(=O)[nH]c1=O
    3	-18	4.7	0	2.2	0.7%
25	NN=C1C(Cl)=C(Cl)C(Cl)=C1Cl
    1	10	-7.4	?	0.5	4.0%
26	COc1cc2c(cc1OC)C(C(=O)N1CCC3(CC1)OCCO3)C(c1ccccc1F)N(C)C2=O (stereo not drawn)
    -10	?	-2.2	-1	0.0	2.9%
27	COc1ccc(C=C2C(=O)NC(=S)NC2=O)cc1OC
    -10	-11	-5.4	-8	0.1	2.0%
28	O=c1[nH]c(=S)[nH]c(O)c1N=Nc1cc2c(cc1[N+](=O)[O-])OCO2
    -5	6	2.1	-11	0.1	1.1%
29	O=C(COC(=O)Cc1ccccc1)Nc1ccc(Cl)cn1
    0	10	-2.6	-1	-1.4	2.2%
30	N#Cc1ccc(CN2Cc3ccccc3-n3nncc3C2)cc1
    4	13	-3.8	8	-0.3	-0.1%

(continued)
Order of results: CtBP-E1A blk	TRPML1 blocker	D2 ag	Six1-Eya2 inh	TRPML1 agonist	PINK1 expr mod
31	COc1ccccc1NC1(C#N)CCCCC1
    -3	22	-4.2	-2	2.9	-0.8%
32	O=C(CCCN1CCC(n2c(=O)[nH]c3ccccc32)CC1)c1ccc(F)cc1
    -2	0	1.2	-2	-0.7	-0.2%
33	O=C(O)c1cc[c]([Hg][Cl])cc1
    ?	-2	13	-4	-0.9	3.6%
34	c1cc2c(cc1CCNC1C3CC4CC(C3)CC1C4)OCO2 (stereo not drawn)
    1	4	-1.1	0	0.3	0.2%
35	CCOC(=O)[C@]12Cc3cc(OC)ccc3[C@H]1N(C(C)C)C(=O)c1cc(OC)ccc12
    0	.	.	18	-0.5	-1.3%
36	COc1cc2c(cc1/C=C/[N+](=O)[O-])OCO2
    1	4	-6.4	-4	9.4	-2.1%
37	CN1OCC2Cn3c(nc4ccccc43)C21 (stereo not drawn)
    -16	-12	-3.1	16	0.4	0.3%
38	COc1ccc(NC(=O)CCc2nc(C3=CCN(Cc4cccc(Cl)c4)CC3)no2)c(OC)c1
    .	-5	.	.	1.0	-0.3%
39	CCCCOC(=O)C1=C(N)OC2=C(C(=O)CC(C)(C)C2)[C@]12C(=O)N(C)c1ccccc12
    2	5	-2.3	-7	-0.9	-0.1%
40	CC(C)N(CC#CCC1(O)c2ccccc2-c2ccccc21)C(C)C
    0	-9	-2.1	28	0.7	0.4%
41	COc1cccc(C(=O)C2CCCN(Cc3ccccn3)C2)c1 (stereo not drawn)
    -3	-21	-6.3	9	-0.8	1.4%
42	COc1ccc(-n2c(O)c(C=NCCN3CCN(C(C)=O)CC3)c(=O)[nH]c2=S)cc1
    -1	5	1.6	15	0.5	3.6%
43	CCC1(CC)COP(=O)(OCC(Cl)CCl)OC1 (stereo not drawn)
    -4	19	-0.3	7	0.0	0.1%
44	COc1ccc(OC(=O)N(C)C[C@@H]2OCc3ccccc3-c3c(n(C)c4ccccc34)C(=O)N([C@H](C)CO)C[C@@H]2C)cc1
    -4	35	-1.5	-7	22	-1.7%
45	O=C1NCN(c2ccccc2)C12CCN(C(c1cccs1)c1nnnn1-c1ccc3c(c1)OCCO3)CC2 (stereo not drawn)
    -15	.	6.9	-19	-0.6	0.2%
46	Cc1ccc(N2C(=O)NC(=O)C3(Cc4ccccc4N4CCCC43)C2=O)cc1 (stereo not drawn)
    0	6	0.0	0	-0.6	-0.2%
47	Cc1ccccc1NC(=NCCCN1CC1)Nc1ccccc1C
    16	24	-2.8	18	0.3	-3.7%
48	O=C1/C(=C\c2ccncc2)N2CCC1CC2
    .	6	-2.3	-6	-0.9	2.4%
49	O=C(NC1CC1)c1cn(Cc2ccccc2)nc1-c1ccccc1
    11	-1	2.9	-4	-0.4	4.5%
50	C=C1C(C)C2C(Cc3ccccc3)NC(=O)C23OC(=O)/C=C/C(O)CCCC(C)C/C=C/C3C1O (stereo not drawn)
    1	14	6.6	6	0.2	?
51	CC1=NN(c2ccccc2)C(=O)C1/C=C1\C(=O)NC(=O)N(c2ccc(C)c(C)c2)C1=O (stereo not drawn)
    0	-5	-1.3	-10	-0.8	-1.0%
52	Cc1ccc(-c2nn(Cc3ccccc3)cc2C=O)cc1
    -18	-18	-5.6	-5	2.0	3.8%
53	COc1cc2c(cc1OC)C13CCN4CC5=CCOC(CC(=O)O)C(C5CC41)C3N2 (stereo not drawn)
    -4	-11	1.6	-5	0.4	-4.5%
54	C[C@@H]1CN([C@@H](C)CO)C(=O)CCCn2nncc2CO[C@@H]1CN(C)C(=O)Oc1ccccc1
    2	1	-3.6	2	1.9	-0.3%
55	Cn1c(C(=O)N2CCC3(CC2)OCCO3)cc2c(=O)n(C)c3ccccc3c21
    -16	-13	0.8	-16	-0.4	-3.7%[38.3 µM]
56	Cc1ccc2c(c1)CC1(CN2C)C(=O)NC(=O)N(C(C)C)C1=O (stereo not drawn)
    1	-4	-2.9	0	0.3	0.0%
57	CSCCC(c1nnnn1Cc1ccccc1)N1CCC(n2c(=O)[nH]c3ccccc32)CC1 (stereo not drawn)
    -16	-4	-0.6	-26	1.1	-0.4%
58	COc1ccc(C2C=C(c3ccccc3)Nc3nc(NC(=O)/C=C/c4ccccc4Cl)nn32)cc1 (stereo not drawn)
    .	-11	.	.	-0.3	?
59	O=c1cccc2n1CC1CC2CN(S(=O)(=O)c2cc(Cl)ccc2Cl)C1 (stereo not drawn)
    14	16	-2.0	-1	0.5	-2.3%
60	O=C(c1c[nH]c2ccc(S(=O)(=O)N3CCOCC3)cc2c1=O)N1CCC2(CC1)OCCO2
    4	-14	-3.1	3	0.0	0.7%

Next records follow:
Order of results: CtBP-E1A blk	TRPML1 blocker	D2 ag	Six1-Eya2 inh	TRPML1 agonist	PINK1 expr mod
61	O=C(O)c1ccc(NC(=O)N2C[C@H]3C[C@@H](C2)c2cccc(=O)n2C3)cc1
    2	.	-1.7	1	.	2.4%
62	CC1=CC(=O)NP(=O)(Oc2ccc3ccccc3c2)N1 (stereo not drawn)
    14	5	-4.8	4	-0.7	-0.1%
63	CCOP(=O)(OCC)c1cccc(O)c1
    7	8	6.0	7	0.4	0.0%
64	O=S1(=O)N(Cc2ccc(F)cc2)CCCN1Cc1ccccc1Cl
    26	67	-3.3	11	3.0	3.7%
65	Cc1ccccc1-n1c(/C=C/c2c(C)[nH]c3ccccc23)nc2ccccc2c1=O
    .	16	.	.	3.1	0.5%
66	CCOC(=O)c1ccc(N2C(=O)c3[nH]nc(-c4ccccc4)c3C2c2ccc(C(C)C)cc2)cc1 (stereo not drawn)
    .	22	.	.	-0.1	?
67	CC1(O)CCC2C3CCC4=CC(=O)CCC4(C)C34OC4CC21C (stereo not drawn)
    2	4	-2.0	-4	-0.1	0.0%
68	O=C1NC(=O)C2(Cc3cc([N+](=O)[O-])ccc3N3CCN(C(=O)c4ccccc4)CC32)C(=O)N1 (stereo not drawn)
    -1	-11	-6.1	-3	-1.1	5.9%
69	C#CC1(OC(=O)c2ccccc2)CC(C)N(C)CC1C (stereo not drawn)
    .	.	-0.5	0	.	4.0%
70	CCOP(=O)(OCC)c1cccc(OP(=O)(c2cccc([N+](=O)[O-])c2)c2cccc([N+](=O)[O-])c2)c1
    11	22	0.8	7	-0.4	19%
71	COc1ccccc1N1CCN(C(CNC(=O)Oc2ccccc2)c2cccnc2)CC1 (stereo not drawn)
    -1	16	-3.5	-4	5.2	1.4%
72	Cc1ccc(-n2c(O)c(C=NCCN3CCOCC3)c(=O)[nH]c2=O)cc1
    3	9	-0.8	5	0.0	-1.2%

Screening data (PubChem)

This is a subset. The share of hits here may be higher or lower than overall.
